LANA-H2A inh = blockers of LANA interaction with H2A/H2B – biochemical, FP readout, HTS, primary screen | Protein LANA1 (Human herpesvirus 8 type P (isolate GK18)), Q9QR71 | cell-free LANA-H2A/H2B peptide, fluorescence polarization | inhibition, % (concentration not given with the values) | 0.6% of 320,000 active | AID 2629, 2010; in the data active = inhibition mostly above about 10%, no sharp cut-off; inactive = mostly below about 6.7%;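 also: stock transfer was 7.5 nL into about 10 µL; 0% = median of vehicle wells and 100% = median of positive control wells; one replicate is shown; the record names a cut of 25% in any replicate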
HNF4A DNA FP = change in binding of human HNF4A to DNA, primary screen, biochemical, fluorescence polarization, FITC-DNA; Hepatocyte nuclear factor 4-alpha (Homo sapiens), P41235; 1 h; activity change, % at 10 µM; 0.3% of 360,000 active; in the data active = activity change above about 30%, passing the limit was not always enough;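 also: controls were the assay level and a saturating level of protein; the project sought stronger binding though the title names inhibitors; some compounds called inactive have numbers as strong as hits; positive values seem to mean higher polarization but the record does not say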
FGF22 binding = binders of human FGF22 protein, primary screen, FGF22 synaptogenesis inhibitor project, biophysical, thermal shift, single point; recombinant FGF22 thermal shift, SYPRO orange fluorescence; percent of sucrose octasulfate shift, DMSO zero; calls only at 9.99 µM; 1.5% of 340,000 active; AID 651658, 2012;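 active = melting point raised past a set limit in the mean and every replicate; inconclusive = no clear call; three in four hits are not shown here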
Target sequence (Q9HCT0 whole entry, looked up): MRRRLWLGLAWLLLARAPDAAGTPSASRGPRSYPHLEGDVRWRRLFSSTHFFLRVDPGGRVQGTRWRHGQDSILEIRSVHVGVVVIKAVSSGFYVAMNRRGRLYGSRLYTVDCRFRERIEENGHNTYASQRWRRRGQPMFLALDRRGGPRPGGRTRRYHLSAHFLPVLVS
Beta2AR agonist = beta2AR agonists driving receptor internalization, primary screen, cell-based, FAP fluorogen, flow cytometry; Beta-2 adrenergic receptor (Homo sapiens), P07550; Am2.2-beta2AR cells; reference of the scale not given here; response, % (concentration not given with the values); 0.43% of 340,000 active; AID 504454, 2011;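 active = response above a set limit, near 3 SD of response in nonfluorescent compounds, cut at about 42% in these data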;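 also: stock transfer was 100 nL into about 11 µL; a reference agonist was the positive control; negative values mostly stem from fluorescent compounds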
Target sequence (P07550 whole entry, looked up): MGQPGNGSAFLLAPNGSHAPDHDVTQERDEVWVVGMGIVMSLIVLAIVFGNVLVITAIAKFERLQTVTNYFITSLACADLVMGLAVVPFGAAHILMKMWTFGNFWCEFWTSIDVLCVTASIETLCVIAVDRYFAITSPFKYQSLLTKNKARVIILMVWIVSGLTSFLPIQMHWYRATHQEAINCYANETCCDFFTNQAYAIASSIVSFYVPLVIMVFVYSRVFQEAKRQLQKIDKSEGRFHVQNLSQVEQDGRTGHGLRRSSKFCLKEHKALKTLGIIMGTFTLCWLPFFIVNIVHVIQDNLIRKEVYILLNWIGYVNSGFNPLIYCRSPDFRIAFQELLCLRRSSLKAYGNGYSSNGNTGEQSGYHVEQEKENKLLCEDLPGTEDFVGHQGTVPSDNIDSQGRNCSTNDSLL
Ecoli growth = E. coli growth inhibition, primary screen, OD600; AID 1053175, 2014; Escherichia coli growth, 23 h; active compounds read low; 0.21% of 330,000 active; OD600 absorbance (no concentration beside the values);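 active = OD600 absorbance below the run mean of sample wells minus 3.6 SD, in any replicate, cut at about 0.56 in these data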;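 also: stock transfer was 300 nL into about 60 µL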
UCH37 DUB inh = inhibitors of human UCH37 deubiquitinase, primary screen, biochemical, Ub-AMC cleavage, fluorescence. AID 588478, 2011. inhibition, % (no concentration beside the values). Ubiquitin carboxyl-terminal hydrolase isozyme L5 (Homo sapiens), Q9Y5K5. purified proteasome/UCH37. 0.33% of 330,000 active;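 active = mean of two replicates above 20%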;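 also: 0% = compound-free wells with enzyme and 100% = wells lacking proteasome; stock transfer was 100 nL into about 20 µL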
Target sequence (Q9Y5K5 whole entry, looked up): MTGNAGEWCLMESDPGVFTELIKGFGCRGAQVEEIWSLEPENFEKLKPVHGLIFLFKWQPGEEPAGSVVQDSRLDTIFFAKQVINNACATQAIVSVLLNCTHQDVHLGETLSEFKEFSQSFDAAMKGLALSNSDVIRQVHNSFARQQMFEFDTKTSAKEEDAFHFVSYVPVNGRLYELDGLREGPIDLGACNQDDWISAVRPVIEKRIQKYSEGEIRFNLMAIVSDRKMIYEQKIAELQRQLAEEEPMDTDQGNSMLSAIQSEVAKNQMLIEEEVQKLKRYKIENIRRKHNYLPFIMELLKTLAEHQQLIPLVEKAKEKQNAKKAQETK
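Material: Human UCH37 enzyme supplied as purified proteasome complex | Schedule: 30 min preincubation with enzyme, 25 min cleavage at room temperature | Detection: AMC fluorescence 355/460 nm | Measure: % inhibition of Ub-AMC cleavage fluorescence | Controls: Wells without proteasome as full block, compound-free enzyme plus substrate as uninhibited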
ALR inh = inhibitors of human ALR sulfhydryl oxidase, primary screen, biochemical, H2O2 detection, HRP-luminol luminescence, single point; FAD-linked sulfhydryl oxidase ALR (Homo sapiens), P55789; purified ALR, DTT oxidation; inhibition, % (concentration not given with the values); 3.8% of 290,000 active;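 active = mean and each replicate at 75% or more; inconclusive = only one of the two met; inactive = neither met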;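 also: stock transfer was 7.5 nL into about 7.5 µL; 0% = neutral wells and 100% = wells with inactivated enzyme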
* hit, by the source's call. Only part of the results is shown; count on the stated rates, not on these rows.

Screening O=C(O)c1cc(NS(=O)(=O)c2ccc(NC3CCCCC3)c([N+](=O)[O-])c2)cc(C(=O)O)c1 returned LANA-H2A inh -0.3, HNF4A DNA FP -3.1, Beta2AR agonist 7, Ecoli growth 0.72, UCH37 DUB inh 7.1 and ALR inh 3.
Screening O=C(Cc1ccccc1)Nc1scc(-c2ccccc2)c1C(=O)N1CCOCC1 returned LANA-H2A inh -0.1, HNF4A DNA FP 2.2, Beta2AR agonist -9, Ecoli growth 0.74, UCH37 DUB inh 1.2 and ALR inh -7.
For CCC1SC(C)C/C(=N/NC(N)=O)C1C (centres undefined) the results were LANA-H2A inh -2.2, HNF4A DNA FP 3.3, FGF22 binding inactive, Beta2AR agonist -2 and ALR inh -2.
`COc1ccc(N2CCN(S(=O)(=O)CCNC(=O)/C=C/c3ccccc3)CC2)cc1` gave LANA-H2A inh 1.4, HNF4A DNA FP -0.1, FGF22 binding inactive, Beta2AR agonist 0, Ecoli growth 0.69, UCH37 DUB inh 1.1 and ALR inh -3.
Cc1ccc(Cn2c(SCC(N)=O)nc3c2c(=O)n(C)c(=O)n3C)cc1 was read as LANA-H2A inh 3.7, HNF4A DNA FP 3.4, FGF22 binding inactive, Beta2AR agonist -1, Ecoli growth 0.66, UCH37 DUB inh 1.0 and ALR inh 6.
`O=C(CN1CCN(c2ccccc2F)CC1)NCc1ccc(Cl)cc1` gave LANA-H2A inh -1.5, HNF4A DNA FP -2.2, FGF22 binding inactive, Beta2AR agonist 0, Ecoli growth 0.71, UCH37 DUB inh 2.5 and ALR inh 0.
CC12CCC(=O)N1C(C(=O)OCc1c(Cl)cccc1Cl)CS2 (centres undefined) was read as LANA-H2A inh 3.3, HNF4A DNA FP -0.2, FGF22 binding inactive, Beta2AR agonist 1, Ecoli growth 0.69 and UCH37 DUB inh -1.0.
For COc1ccc(C2N(c3ccc(F)cc3)C(=O)C3CCCN32)cc1 (centres undefined) the results were LANA-H2A inh -1.5, HNF4A DNA FP 7.3, FGF22 binding inactive, Beta2AR agonist 7, Ecoli growth 0.76, UCH37 DUB inh 0.0 and ALR inh -7.
`CC(=O)N1c2ccccc2C(C)(C)C2CCC(C)CC21` (centres undefined) gave LANA-H2A inh -2.4, HNF4A DNA FP 0.9, Beta2AR agonist 6, Ecoli growth 0.7, UCH37 DUB inh 6.5 and ALR inh -9.
Screening CCOc1cc(/C=N/n2cnnc2)ccc1O returned LANA-H2A inh -4.0, HNF4A DNA FP -1.8, FGF22 binding inactive, Beta2AR agonist 1 and ALR inh 99*.
For O=C(NCC(=O)N(c1ccc(F)cc1)C(C(=O)NC1CCCCC1)c1ccncc1)c1ccco1 (centres undefined) the results were LANA-H2A inh 1.0, HNF4A DNA FP 0.6, FGF22 binding inactive, Beta2AR agonist -14, Ecoli growth 0.67, UCH37 DUB inh 1.2 and ALR inh -1.
For COc1ccc([C@@H]2CC(=O)c3c(O)cc(O[C@@H]4O[C@H](CO[C@@H]5O[C@@H](C)[C@H](O)[C@@H](O)[C@H]5O)[C@@H](O)[C@H](O)[C@H]4O)cc3O2)cc1O the results were LANA-H2A inh -5.0, HNF4A DNA FP -2.5, FGF22 binding inactive, Beta2AR agonist -3, UCH37 DUB inh -3.0 and ALR inh 43.
For CCC(c1nnnn1C1CCCC1)N(Cc1cccs1)Cc1cc2cccc(C)c2[nH]c1=O (centres undefined) the results were LANA-H2A inh -1.9, HNF4A DNA FP 1.2, Beta2AR agonist 33, Ecoli growth 0.78, UCH37 DUB inh 1.2 and ALR inh -4.
COc1ccc(S(=O)(=O)N(C)C[C@H]2Oc3ccc(NS(=O)(=O)c4ccccc4)cc3CC(=O)N([C@H](C)CO)C[C@@H]2C)cc1 was read as LANA-H2A inh -8.5, HNF4A DNA FP -1.7, FGF22 binding inactive, Beta2AR agonist -5, Ecoli growth 0.76, UCH37 DUB inh 4.0 and ALR inh -1.
Screening COc1cccc(C(=O)N(Cc2ccco2)c2c(N)n(Cc3ccccc3)c(=O)[nH]c2=O)c1 returned LANA-H2A inh 0.1, HNF4A DNA FP 3.8, FGF22 binding inactive, Beta2AR agonist 2, Ecoli growth 0.7, UCH37 DUB inh 0.0 and ALR inh -4.
For COCCNC(=O)C(c1ccc(F)cc1)N(Cc1ccco1)C(=O)CCC(=O)Nc1nccs1 (centres undefined) the results were LANA-H2A inh 1.8, HNF4A DNA FP 3.5, Beta2AR agonist 1, Ecoli growth 0.77, UCH37 DUB inh 5.1 and ALR inh 2.
For Cc1ccc(-c2nnc(OCCN3CCOCC3)c3ccccc23)cc1 the results were LANA-H2A inh -1.0, HNF4A DNA FP -3.8, Beta2AR agonist -1, Ecoli growth 0.69, UCH37 DUB inh 4.7 and ALR inh 1.
For CCCCN(C(=O)c1cccc(N2C(=O)c3ccccc3C2=O)c1)c1c(N)n(CC(C)C)c(=O)[nH]c1=O the results were LANA-H2A inh -8.3, HNF4A DNA FP -0.3, FGF22 binding inactive, Beta2AR agonist 11, Ecoli growth 0.69, UCH37 DUB inh 1.1 and ALR inh -1.
For COc1cccc(C(=O)NCC(=O)OCC(=O)NC2CCCCC2)c1 the results were LANA-H2A inh -1.0, HNF4A DNA FP -0.4, FGF22 binding inactive, Beta2AR agonist 4, Ecoli growth 0.65, UCH37 DUB inh 2.4 and ALR inh 6.
Screening O=C(NC1CC1)C1CCN(Cc2cnn(-c3ccccc3)c2-n2cccc2)CC1 returned LANA-H2A inh 1.8, HNF4A DNA FP 2.0, Beta2AR agonist 2, Ecoli growth 0.7, UCH37 DUB inh 0.4 and ALR inh -4.
For O=C(N[C@@H]1C/C=C\C[C@@H](CC(=O)N(CCO)Cc2ccccc2)C(=O)N[C@H](Cc2ccccc2)COC1=O)OCC1c2ccccc2-c2ccccc21 the results were LANA-H2A inh -2.9, HNF4A DNA FP 1.0, FGF22 binding inactive, Beta2AR agonist 5, UCH37 DUB inh 3.9 and ALR inh 5.
COc1ccccc1C(=O)NCCC(=O)NNC(=O)C1COc2ccccc2O1 (centres undefined) was read as LANA-H2A inh -8.2, HNF4A DNA FP -2.2, FGF22 binding inactive, Beta2AR agonist 2, Ecoli growth 0.66, UCH37 DUB inh 5.9 and ALR inh -9.
`CCCc1cc(=O)[nH]c(SCC(=O)Nc2cc3c(cc2C(C)=O)OCO3)n1` gave LANA-H2A inh 4.7, HNF4A DNA FP -1.4, Beta2AR agonist 1, Ecoli growth 0.72, UCH37 DUB inh -9.1 and ALR inh -2.
`C=CCNC(=S)NCc1ccc(CNC(=S)NCC=C)cc1` gave LANA-H2A inh 8.8, HNF4A DNA FP 4.4, FGF22 binding inactive, Beta2AR agonist -2, Ecoli growth 0.73, UCH37 DUB inh 1.1 and ALR inh -6.
Screening O=C(COC(=O)CCCNC(=O)c1ccc(Cl)cc1)NCc1ccccc1Cl returned LANA-H2A inh 2.9, HNF4A DNA FP -3.9, Beta2AR agonist 1, Ecoli growth 0.64, UCH37 DUB inh 0.5 and ALR inh -21.
C/C(=N/NC(=O)CNC(=O)C1COc2ccccc2O1)c1ccc([N+](=O)[O-])cc1 (centres undefined) was read as LANA-H2A inh -2.0, HNF4A DNA FP 0.8, FGF22 binding inactive and Beta2AR agonist -3.
`CC1(C)Cc2c(sc(NC(=O)C(=O)N3CCCC3)c2C(=O)O)CO1` gave LANA-H2A inh 3.3, HNF4A DNA FP 2.1, FGF22 binding inactive, Beta2AR agonist 8, Ecoli growth 0.7, UCH37 DUB inh 5.8 and ALR inh 8.
Cc1nc2ccc(NC(=O)c3ccc([N+](=O)[O-])cc3[N+](=O)[O-])cc2s1 was read as LANA-H2A inh -5.1, HNF4A DNA FP 2.5, FGF22 binding inactive and Beta2AR agonist 1.
`CCCCC1=CC2=CC(=O)C(C)(OC(=O)CCc3ccccc3)C(=O)C2=CO1` (centres undefined) gave LANA-H2A inh -2.7, HNF4A DNA FP 24, FGF22 binding inactive, Beta2AR agonist 1 and UCH37 DUB inh 0.8.
CN(C)C(=O)CCC(=O)N(C)CC1CCCN(CCc2ccc(F)cc2)C1 (centres undefined) was read as LANA-H2A inh -0.3, HNF4A DNA FP 2.1, FGF22 binding inactive, Beta2AR agonist -4, Ecoli growth 0.66 and UCH37 DUB inh -0.7.
`CC(=O)c1ccc(NS(=O)(=O)Cc2ccccc2)cc1` gave LANA-H2A inh -2.7, HNF4A DNA FP -5.2, Beta2AR agonist 8, Ecoli growth 0.7, UCH37 DUB inh 6.3 and ALR inh 3.
CCn1c(=O)n(CC(=O)N2CC(C)CC(C)C2)c(=O)c2ccccc21 (centres undefined) was read as LANA-H2A inh 0.7, HNF4A DNA FP 1.0, Beta2AR agonist -2, Ecoli growth 0.72, UCH37 DUB inh 1.2 and ALR inh 1.
Screening CN(C)c1ccc(CCc2ccc(N)cc2)cc1 returned LANA-H2A inh 1.8, HNF4A DNA FP 1.5, FGF22 binding inactive, Beta2AR agonist 17, Ecoli growth 0.66, UCH37 DUB inh -61 and ALR inh inconclusive.
`Cc1cc2ccccc2c(=O)n1CC(=O)NCC(=O)N1CCN(c2ccccc2F)CC1` gave LANA-H2A inh -2.1, HNF4A DNA FP -1.6, Beta2AR agonist -6, Ecoli growth 0.7, UCH37 DUB inh -1.1 and ALR inh 3.
For FC(F)(F)c1cnc(-c2cnc(-c3ccncc3)nc2)c(Cl)c1 the results were LANA-H2A inh -4.2, HNF4A DNA FP -4.4, FGF22 binding inactive, Beta2AR agonist -16, Ecoli growth 0.69, UCH37 DUB inh 1.8 and ALR inh 0.
For COc1ccc(C(=O)Nc2ccc(NC(=O)c3cccc(F)c3)cn2)cc1 the results were LANA-H2A inh -9.2, HNF4A DNA FP 2.5, FGF22 binding inactive, Beta2AR agonist 5, Ecoli growth 0.64 and UCH37 DUB inh -64.
Screening CCCn1nc(C(=O)Nc2ccc3nc(N4CCOCC4)sc3c2)ccc1=O returned HNF4A DNA FP 1.1, FGF22 binding inactive, Beta2AR agonist 9, Ecoli growth 0.7 and UCH37 DUB inh 7.6.
O=C1C2CC=C(Cl)CC2C(=O)N1CC1OCCc2ccccc21 (centres undefined) was read as LANA-H2A inh -1.3, HNF4A DNA FP -4.1, Beta2AR agonist 2, Ecoli growth 0.77, UCH37 DUB inh 0.5 and ALR inh -3.
For Cc1ccc(C(=O)Nc2cc3c(oc2=O)CCCC3=O)cc1 the results were LANA-H2A inh 1.8, HNF4A DNA FP 3.2, Beta2AR agonist -20, Ecoli growth 0.72, UCH37 DUB inh 1.0 and ALR inh -2.
Cc1ccc(NC(=O)Cn2cc(C(F)(F)F)cc(Cl)c2=O)cc1S(=O)(=O)N1CCCCC1 was read as LANA-H2A inh 0.3, HNF4A DNA FP 4.5, FGF22 binding inactive, Beta2AR agonist -11, Ecoli growth 0.71, UCH37 DUB inh 2.3 and ALR inh -4.
For CN(CCc1ccccn1)C(=O)CCC1CCCN(C(=O)c2c(F)ccc(F)c2F)C1 (centres undefined) the results were LANA-H2A inh 1.7, HNF4A DNA FP -1.6, FGF22 binding inactive, Beta2AR agonist 7, Ecoli growth 0.68, UCH37 DUB inh 0.6 and ALR inh -4.
For O=C(NCCCN1CCCC1=O)c1cc2c(s1)CCCCC2 the results were LANA-H2A inh 4.2, HNF4A DNA FP 0.4, FGF22 binding inactive, Beta2AR agonist -9, Ecoli growth 0.7, UCH37 DUB inh 1.0 and ALR inh -7.

Screens as filed in PubChem BioAssay.
